KAT2A inh – blocks human GCN5L2 histone acetyltransferase; 0.21% of 390,000 active; Q92830; GCN5L2 HAT assay, ThioGlo1 CoA-SH fluorescence; Potency, µM (titrated, usually from 58.9 µM), for the others: at the highest dose activity change, negative = inhibition, hits mostly inhibitors; active = well fitted inhibition curve with a large enough effect
Target sequence (Q92830 whole entry, looked up): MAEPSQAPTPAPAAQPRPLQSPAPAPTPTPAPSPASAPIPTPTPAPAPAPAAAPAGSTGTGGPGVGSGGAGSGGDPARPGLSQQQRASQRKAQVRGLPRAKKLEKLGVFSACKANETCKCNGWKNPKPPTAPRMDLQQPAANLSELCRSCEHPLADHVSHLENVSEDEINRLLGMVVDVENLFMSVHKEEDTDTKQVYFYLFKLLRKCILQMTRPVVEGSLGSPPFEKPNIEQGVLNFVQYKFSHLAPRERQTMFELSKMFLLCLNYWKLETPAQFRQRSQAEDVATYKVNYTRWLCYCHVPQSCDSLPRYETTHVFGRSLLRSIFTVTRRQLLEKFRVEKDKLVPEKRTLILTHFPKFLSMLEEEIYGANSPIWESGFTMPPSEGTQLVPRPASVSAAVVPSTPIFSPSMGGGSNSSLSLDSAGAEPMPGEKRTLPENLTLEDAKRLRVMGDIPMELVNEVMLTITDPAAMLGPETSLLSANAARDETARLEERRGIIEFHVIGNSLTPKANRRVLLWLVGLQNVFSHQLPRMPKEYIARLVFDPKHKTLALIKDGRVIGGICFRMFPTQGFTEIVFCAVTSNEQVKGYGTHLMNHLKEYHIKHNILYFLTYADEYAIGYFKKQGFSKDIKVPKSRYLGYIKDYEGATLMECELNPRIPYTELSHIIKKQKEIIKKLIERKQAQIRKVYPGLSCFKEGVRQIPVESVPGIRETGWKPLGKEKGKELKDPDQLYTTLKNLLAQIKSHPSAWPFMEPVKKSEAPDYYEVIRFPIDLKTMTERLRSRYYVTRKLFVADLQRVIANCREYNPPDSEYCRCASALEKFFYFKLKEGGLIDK
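GCN5L2 (20nM final) in 50mM HEPES, 0.1mM EDTA pH 7.5, 0.01% Tween-20 was preincubated 15 min at room temperature with compound, then given ThioGlo1 (50uM), H3(1-25) peptide (75uM) and acetyl-CoA (70uM); CoA-thiol fluorescence (Ex340/Em540) was read at 0 and 20 min.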
* hit, by the source's call; & = joins results of further samples; [ ] = dose if it differs, or a comment. % is scaled to controls: 0 for no effect and ±100 for the full control effect; potency is read from the fitted curve at half-maximal effect. Only part of the results is shown, and most or all hits are left out here.

KAT2A inh | Molecule
-1% | COc1ccc2cc(/C(C)=N/NC(=O)c3cc(-c4cccnc4)nc4ccccc34)ccc2c1
-4% | COc1ccc(C(=O)N/N=C(\C)c2cccc(NC(=O)c3ccc(F)cc3)c2)c(OC)c1
-5% | O=C(Cc1cccc(C(F)(F)F)c1)NCc1ccc(Cl)cc1Cl
-1% | Cc1onc(-c2ccccc2)c1C(=O)NNC(=O)c1ccccc1O
-2% | O=C(Nc1c2c(nn1-c1ccccc1)CS(=O)(=O)C2)c1cc2ccccc2o1
-14% | COc1cc(-c2coc3cc(OCc4ccccc4)c(OC)c(O)c3c2=O)cc(O)c1OC
2% | COc1cccc(NC(=O)CC2COc3ccccc3O2)c1 (stereo unspecified)
-7% | O=C(Oc1ccc(F)cc1)c1nc(SCc2ccc(F)cc2)ncc1Cl
2% | COc1ccc(C(=O)C2CCCN(Cc3ccc(C#CCCO)cc3)C2)c(OC)c1 (stereo unspecified)
-9% | O=C(COC(=O)/C=C/c1ccc(Cl)cc1)Nc1ccccc1
-2% | O=C(CN(Cc1ccc(F)cc1)C(=O)CCC(=O)Nc1ccccn1)NCc1ccco1
1% | CCCS(=O)(=O)C/C(N)=N/OC(=O)c1ccc(Cl)cc1
-8% | COc1ccc(CC(=O)N2CC(C)CC(C)C2)cc1 (stereo unspecified)
-7% | Cc1cc(NC(=O)c2ccc3c(c2)OCCO3)no1
-11% | COc1ccc(NC(=O)CSc2c3c(nc4cc(Cl)ccc24)CCCC3)cc1OC
2% | CCOC(=O)N1CCN(C(=O)CSCc2ccccc2C)CC1
2%[21.4 µM] | CNNCc1ccc(C(=O)NC(C)C)cc1
-4% | Cc1sc2nc(CN(C(=O)c3cccs3)C3CCCC3)[nH]c(=O)c2c1C
0% | CCc1ccccc1N(CC(=O)NCc1ccccc1)C(=O)CCC(=O)Nc1ccccn1
1% | O=C(CSc1cn(Cc2ccccc2)c2ccccc12)N1CCOCC1
-5% | O=C(NCc1ccccc1Cl)c1ccccc1Oc1ccccc1
0% | O=C1CC(c2ccc(F)cc2)CC2=C1C=Nc1ccccc1N2 (stereo unspecified)
-2% | Cc1ccccc1OCCC(=O)OCC(=O)NC(C)c1ccccc1 (stereo unspecified)
-13% | O=C1NN=C(c2ccc(Cl)cc2)CC1c1cccc(Br)c1 (stereo unspecified)
-16% | Cc1noc(C)c1CSCC(=O)Nc1cc(S(=O)(=O)N2CCOCC2)ccc1OCC(F)(F)F
-1% | COc1ccc(NC(=O)CNC(=O)c2c(C)nn(C)c2Cl)cc1
9% | O=C(Nc1ccccc1C(=O)NC(Cc1ccc(O)cc1)C(=O)O)c1ccccc1 (stereo unspecified)
-14% | COc1ccc2occ(CC(=O)Nc3ccc(S(=O)(=O)Nc4nc(C)cc(C)n4)cc3)c2c1
-9% | CNc1ccccc1-n1ccc(-c2ccccc2)n1
-5% | CCO[C@@H]1OC(C(=O)N2CCN(Cc3ccccc3)CC2)=C[C@H](c2ccccc2)[C@H]1CCCO

At a glance, 3 of the compounds above:
KAT2A inh | Molecule
-13% | O=C1NN=C(c2ccc(Cl)cc2)CC1c1cccc(Br)c1 (stereo unspecified)
-16% | Cc1noc(C)c1CSCC(=O)Nc1cc(S(=O)(=O)N2CCOCC2)ccc1OCC(F)(F)F
-1% | COc1ccc(NC(=O)CNC(=O)c2c(C)nn(C)c2Cl)cc1

A few values from the list:
Under KAT2A inh, COc1ccc(NC(=O)CNC(=O)c2c(C)nn(C)c2Cl)cc1 has -1%
Under KAT2A inh, CCc1ccccc1N(CC(=O)NCc1ccccc1)C(=O)CCC(=O)Nc1ccccn1 has 0%
Under KAT2A inh, CNc1ccccc1-n1ccc(-c2ccccc2)n1 has -9%
Under KAT2A inh, O=C1NN=C(c2ccc(Cl)cc2)CC1c1cccc(Br)c1 (stereo unspecified) has -13%

(continued)
KAT2A inh | Molecule
-7%&0% | CCCCn1c2ccc(F)cc2c2nnc(SCCN3CCCCC3)nc21
-9% | O=C(c1ccc(F)cc1F)N1CCN(S(=O)(=O)c2ccc3c(c2)OCCO3)CC1
-2% | O=C(c1cc2ccccc2oc1=O)N1CCN(c2ncccn2)CC1
2% | CCOc1ccc(OCC(=O)N2CCC3(CC2)CC(=O)c2ccccc2O3)cc1
-6% | CC(=O)Nc1ccc(NC(=O)c2ccc(-c3ccc([N+](=O)[O-])cc3)o2)cc1
-10% | C=CCn1c(-c2csc(-c3ccc(OC)c(OC)c3)n2)n[nH]c1=S
-5% | CC(C)(C)OC(=O)N1CCC(c2c(C(=O)NC3CCCCC3)cnn2-c2cccc(F)c2)CC1
1% | CC(=O)Nc1sc2c(c1C(c1cccs1)N1CCOCC1)CCCC2 (stereo unspecified)
-6% | COc1ccccc1CNC(=O)CCNS(=O)(=O)c1ccc2c(c1)CC(C)N2C(C)=O (stereo unspecified)
-16% | O=C(c1ccc(NS(=O)(=O)c2ccc(F)cc2)cc1)N1CCN(c2ccccc2O)CC1
-3% | CC(Oc1ccc2c3c(c(=O)oc2c1)CCCC3)C(=O)NC1CC(C)(C)NC(C)(C)C1 (stereo unspecified)
-10% | Cc1n[nH]c(=O)c2c(NC(=O)CSc3c(Cl)cccc3Cl)oc(C)c12
4% | O=C(Nc1ccc2c(c1)OCCO2)c1cccc(Cl)c1Cl
-11% | CCS(=O)(=O)c1ccc2oc(Nc3cc(Cl)ccc3OC)nc2c1
-10% | Cc1ccc2c(=O)oc(N(C)C)nc2c1
-5% | Cc1ccc(NC(=O)CCC(=O)c2cc(C)sc2C)nc1
0% | CCOc1ccc(NC(=O)CN2C(=O)NC(CCSC)C2=O)cc1 (stereo unspecified)
7% | O=C(NCc1ccc(F)cc1)c1cc2ccccn2n1
-2% | Cn1nc(C(=O)Nc2cccc(C(=O)NC3CC3)c2)c2ccccc2c1=O
-7% | CC(=O)c1ccc(NC(=O)COC(=O)c2nc(Cl)ccc2Cl)cc1
-4% | COc1cccc(Oc2ccc3nnc(C(F)(F)F)n3n2)c1
1% | CCOc1ncccc1C(=O)Nc1cccc(S(=O)(=O)N2CCCCC2)c1
0% | Cc1ccc(C(=O)COc2cc(C)nc3nncn23)cc1
0% | CCOc1ccc(S(=O)(=O)NCC(=O)NC2CCCCC2)cc1
-3% | O=S(=O)(NC1CCCC1)c1cc(F)ccc1F
-9% | Cc1cc(C)c(Cn2c3ccccc3c3cnn(CC(=O)NCC(C)c4ccccc4)c(=O)c32)c(C)c1 (stereo unspecified)
-24% | COc1cccc(-n2c(SCC(=O)OC(C)C)nnc2-c2cccnc2)c1
-21% | CCC(=O)N1CCc2cc(S(=O)(=O)N3CCN(c4ccccc4Cl)CC3)ccc21
-8% | O=S(=O)(c1cc(C(F)(F)F)ccc1Cl)N1CCN(c2ccccn2)CC1
0% | Cc1ccc(C(=O)CC2(O)C(=O)N(C)c3ccccc32)o1 (stereo unspecified)

7 records drawn at random from those above:
KAT2A inh | Molecule
-3% | O=S(=O)(NC1CCCC1)c1cc(F)ccc1F
0% | Cc1ccc(C(=O)COc2cc(C)nc3nncn23)cc1
-21% | CCC(=O)N1CCc2cc(S(=O)(=O)N3CCN(c4ccccc4Cl)CC3)ccc21
-9% | O=C(c1ccc(F)cc1F)N1CCN(S(=O)(=O)c2ccc3c(c2)OCCO3)CC1
-9% | Cc1cc(C)c(Cn2c3ccccc3c3cnn(CC(=O)NCC(C)c4ccccc4)c(=O)c32)c(C)c1 (stereo unspecified)
-11% | CCS(=O)(=O)c1ccc2oc(Nc3cc(Cl)ccc3OC)nc2c1
0% | Cc1ccc(C(=O)CC2(O)C(=O)N(C)c3ccccc32)o1 (stereo unspecified)

The results go on.
KAT2A inh | Molecule
-10% | O=C(Nc1cccnc1)c1ccc(F)c(S(=O)(=O)N2CCOCC2)c1
0% | Cc1cccc(NC(=S)NNC(=O)CC(C)O)c1C (stereo unspecified)
-8% | C=CCNS(=O)(=O)c1ccc(OCC(=O)OC)cc1
-6% | CCCc1cc(C(=O)Nc2c(C)nn(Cc3c(Cl)cccc3Cl)c2C)no1
-5% | COc1ccc(NC(=O)COc2ccccc2C(=O)NCC(c2ccccc2)N(C)C)cc1Cl (stereo unspecified)
-7% | Cc1ccc(OCCSc2nc(C)c(Cc3ccccc3)c(=O)[nH]2)cc1
0% | CN1CCN(Cc2nc3c(c(=O)[nH]c(=O)n3C)n2Cc2c(F)cccc2Cl)CC1
-14% | O=C(N/N=C/c1ccccc1OC(F)F)c1cc(-c2ccncc2)nc2ccccc12
1% | COCCn1c(SCC(=O)c2c(N)n(C3CC3)c(=O)[nH]c2=O)nnc1-c1ccc(Cl)cc1
-4% | O=C1CN(C(=O)CSc2ccc(-c3ccc(F)cc3)nn2)c2ccccc2N1
-6% | Cc1ccc(N2C(=O)C3N=NN(CC(=O)N4N=C(c5cccc6ccccc56)CC4c4ccccc4)C3C2=O)cc1 (stereo unspecified)
-9% | CCN1C(=O)/C(=C/N(C)C)c2ccccc21
-5% | CCOC(=O)C1CCCN(C(=O)c2cn(-c3ccccc3)nc2-c2cccnc2)C1 (stereo unspecified)
-21% | Cc1nn(-c2ccccc2)c(Cl)c1C(=O)NCC(=O)O
-6% | Cc1ccc(S(=O)(=O)N2CCCc3cc(NC(=O)c4ccccc4Cl)ccc32)cc1
-18% | O=C(O)c1ccc(CSc2nnc(-c3ccco3)n2-c2ccccc2)cc1
-3% | Clc1ccccc1-c1nnc2sc(-c3cccs3)nn12
-13% | Cc1ccc(Cl)cc1NC(=O)/C(C#N)=C\c1cn(Cc2ccc(F)cc2)c2ccccc12
-7% | CC[C@]12c3[nH]c4ccccc4c3CCN1C(=O)C(CC(=O)NCCCOC)C[C@@H]2C(=O)N1CCN(C(=O)c2ccco2)CC1 (stereo partly specified)
0% | Cc1ccccc1NC(=O)OCc1cn(-c2ccc(Cl)cc2)nn1
-11% | Cc1cc(=O)n(CC(=O)N2CCCCC2)c2c1c(C)nn2C
-11% | CO/N=C/C(C#N)=C/c1ccc(OC)c(OC)c1
20% | CCCCNC(=O)C1CCN(C/C(C)=C/c2ccccc2)CC1
3% | CCN1CCN(c2ccc(S(=O)(=O)N3CCCCC3)cc2NC(=O)COc2ccccc2)CC1
-6% | Cc1nc(S(=O)(=O)NC2CCCCC2)c(C#N)c(C)c1Cl
0% | Cn1ccnc1SCC(=O)NC12CC3CC(CC(C3)C1)C2
-1% | Cc1ccc(CN2CCC(C(=O)Nc3cccc(-c4cccc(F)c4)c3)CC2)o1
-5% | CCN(CC(=O)NCc1ccc(Cl)cc1)C(=O)c1cc(S(=O)(=O)N2CCOCC2)ccc1C
21% | OCC1(Cc2ccccc2)CCCN(Cc2ccn[nH]2)C1 (stereo unspecified)
-4% | COc1ccc(C(=O)CC(CC(=O)c2ccc(OC)cc2)C(=O)O)cc1
0% | COc1cc(NC(=O)c2ccccc2Cl)ccc1NC(=O)c1cccs1
-11% | COc1ccc(/C=N/NC(=O)C(=O)NCc2cccnc2)cc1OC
2% | COCCNC(=O)CC(NS(=O)(=O)c1ccc(NC(C)=O)cc1)C(C)C (stereo unspecified)
-1% | Cc1ncc(CN2CCN(Cc3ccccc3)C(CCO)C2)s1 (stereo unspecified)
-2% | COc1ccc(-c2nnc(SCC(=O)Nc3c(Cl)cc(Cl)cc3C(=O)O)o2)cc1
-5% | O=c1cccc(-c2ccccc2)[nH]1
-7% | Cc1ccc(C(=O)NCCN2C3=NC[C@@H](Cc4ccccc4)N3C[C@H]2Cc2ccc(O)cc2)cc1Br
1% | CN(CCO)CC(O)Cn1cnc2c1c(=O)n(C)c(=O)n2C (stereo unspecified) (tested in a mixture with another compound)
-4% | O=c1c(Oc2ccccc2F)coc2cc(OCc3cnn(-c4ccccc4)c3)ccc12
3% | CCC1CCCCN1C(=O)CSc1nnc(CNC(=O)c2ccco2)o1 (stereo unspecified)
-1% | Cc1ccc(-n2nnnc2SCC(=O)Nc2nc(-c3ccc(F)cc3)cs2)cc1C
-2% | CC(=O)[C@H]1CCC2C3CC=C4C[C@@H](O)CC[C@]4(C)C3CC[C@@]21C (stereo partly specified)
-1% | Nc1cc(N)nc(CS)n1
-5% | N/C(=N\OC(=O)Cc1ccccc1)c1ccc([N+](=O)[O-])cc1
-5%[21.4 µM] | Nc1ccc(S(N)(=O)=O)cc1
-13% | CCc1c(-c2ccccc2)nc2ccccc2c1C(=O)NCc1ccc(C)cc1
-3% | CCn1c(=O)n(CC)c2cc(S(=O)(=O)Nc3c(C)cccc3C)ccc21
-1% | Cc1c(C(N)=O)sc(N)c1C(=O)OC(C)C
-7% | COC(=O)c1[nH]c2cc(OC)ccc2c1N
13% | O=C(NCc1cccc(Cl)c1)C1CCC(=O)N(C2CC2)C1 (stereo unspecified)
-7% | Cc1ccc(-c2nc(N/N=C/c3ccccc3[N+](=O)[O-])c3ccccc3n2)cc1
0% | O=C(O)CCCC(=O)Nc1ccc(Br)cc1C(=O)O
-11% | CNc1cnn(-c2ccc(C)cc2)c(=O)c1Sc1ccc(C)cc1
-2% | CN(C(=O)CCNC(=O)Cn1cnc2ccccc2c1=O)c1ccc(F)cc1
-3% | Cc1ccsc1/C=N/NC(=O)Nc1ccccc1
-5% | O=C(CCCn1c(=O)[nH]c2cc(Cl)ccc2c1=O)NCCC1=CCCCC1
4% | O=c1c2[nH]c3cccc(Cl)c3c2ncn1CCN1CCCCC1
-7% | CC(=O)N1CCOc2ccc(S(=O)(=O)N3CCC(C(=O)Nc4ccc(C)cc4)CC3)cc21
-6% | O=C(Nc1ccccc1F)N1CCc2ccccc2C1
-1% | COc1ccc(Cl)cc1NC(=O)NCc1cccnc1

Following part
KAT2A inh | Molecule
-10% | CCOc1ccc(N2CC(c3nc4ccccc4n3CCCCOc3ccc(OC)cc3)CC2=O)cc1 (stereo unspecified)
-6% | O=C(c1cc(-c2ccc(Cl)cc2Cl)on1)N1CCCCCC1
3% | CC(NC(=O)c1cc2cc([N+](=O)[O-])ccc2oc1=O)C1CCCO1 (stereo unspecified)
-10% | CCNCc1nc2cc(OC)c(OC)cc2c(=O)[nH]1
-1% | CCOC(=O)C1CCN(C(=O)CCn2c(=O)c3cccn3c3cccnc32)CC1
-1% | CC(=O)N/C(=C/c1ccccc1)c1ccccc1

High-throughput results from PubChem.
